Source: PubChem BioAssay (Broad Institute)
Tgondii IFNg: inhibitors of Toxoplasma gondii growth with IFN-gamma. AID 1259416. 69,000 compounds, 3.8% hits. Toxoplasma gondii growth in IFN-gamma-treated host cells; stronger effect = lower value; reference of the scale not given here. activity change, negative = inhibition, %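 (about 20 µM by stock and volumes)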;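 active means below -70%; inconclusive means fit judged invalid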;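 further: host cells are HeLa cells infected with Toxoplasma gondii; parasite growth read as luciferase light; one replicate is shown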
* hit, by the source's call; ? = inconclusive; & = joins results of further samples. Not all compounds are listed; rates above refer to the full screens.

Cc1cnc(NS(=O)(=O)c2ccccc2)c(Br)c1
  Tgondii IFNg = -52

CC(C)CNC(=O)CC1CC2(CCN(C(=O)CC3CC3)CC2)Oc2ccccc21 (stereo unspecified)
  Tgondii IFNg = -4

CC(C)(C)NC(=O)N1CCC(c2nc(CCNC(=O)C3CC3)cs2)CC1
  Tgondii IFNg = -16

O=C(CCn1cnc2cc(-c3noc(-c4cc5cc(Cl)ccc5[nH]4)n3)ccc21)N1CCCC1
  Tgondii IFNg = 11

COc1ccc(NC(=O)c2cc(=O)n3c(nc4ccccc43)s2)cc1
  Tgondii IFNg = 66

Cc1cc(C)c2c(=O)n(Cc3nc(-c4cccc(Cl)c4)oc3C)c(=O)n(Cc3ccco3)c2n1
  Tgondii IFNg = 11

C=C1C(C)(C)[C@H]2CC[C@]1(C(=O)NCc1cc(COC)n[nH]1)C2
  Tgondii IFNg = -2

O=C(C1CCOCC1)N1CCO[C@H]2[C@H]1CC[C@H]2Oc1ncccc1F
  Tgondii IFNg = -24

O=C(Oc1ccc(Nc2ncnc3ccccc23)cc1)c1cccnc1
  Tgondii IFNg = 7

CCc1oc(C(=O)N(C)CC2OCCc3ccccc32)cc1CN1CCCC1 (stereo unspecified)
  Tgondii IFNg = 0

CO[C@H]1CC[C@@H]2CCOc3c(C#N)cccc3C(=O)N(C)C[C@@H](OC)[C@@H](C)C(=O)N(C)C[C@H]1O2
  Tgondii IFNg = -1

COC(=O)c1cc(OC)c(OC)cc1NS(=O)(=O)c1cccs1
  Tgondii IFNg = 1

O=C(c1cccs1)n1ccc(C(F)(F)F)n1
  Tgondii IFNg = -33

CC(NC(=O)Cc1nn[nH]n1)C1=CCCCC1 (stereo unspecified)
  Tgondii IFNg = 9

O=C(O)c1ccc2[nH]c3c(c2c1)CSCC3
  Tgondii IFNg = 13

O=S(=O)(c1ccccc1)N1CCC2(CC1)Nc1ccc(Cl)cc1-n1cccc12
  Tgondii IFNg = -40

CCCC(=O)Nc1ccc2c(c1)C(=O)N(C)[C@H]1CC[C@@H](CC(=O)N3CCCCC3)O[C@@H]1CO2
  Tgondii IFNg = -2

CCc1nn(C)c(Cl)c1CN1CCC(c2nn(C)c(=O)n2CC)CC1
  Tgondii IFNg = 36

O=C(C1CCOCC1)N1CCC2(CCN(Cc3cccnc3)C2)CC1
  Tgondii IFNg = -26

CCc1nn(C)c(Cl)c1CN(C)Cc1cnn(-c2ccccc2)c1
  Tgondii IFNg = 8

Cc1cc(N(C)Cc2ccsc2)nc(N2CCOCC2)n1
  Tgondii IFNg = -15

CCOc1ccccc1C1c2[nH]c3ccccc3c2CCN1C(=O)CCc1cnn(C)c1 (stereo unspecified)
  Tgondii IFNg = -28

CC(=O)c1c(C)cc(C)c(CN2CCC3(CC2)CNC(=O)C3)c1C
  Tgondii IFNg = -3

CCCn1cnc(NC(=O)c2cc(=O)n(C)c(=O)[nH]2)n1
  Tgondii IFNg = -1

O=C(Cn1c(=O)cc(C(=O)N2CCCCC2)c2ccccc21)Nc1ccc(Cl)cc1
  Tgondii IFNg = 9

Cc1nn(-c2cc(N3CCOCC3)ncn2)c(C)c1CCC(=O)NC1CCCCC1
  Tgondii IFNg = 3

CCOc1ccccc1-c1nc(Cn2nnc(C(=O)Nc3ccc(C)cc3C)c2C)c(C)o1
  Tgondii IFNg = 198

Cc1noc(C)c1S(=O)(=O)N1CCCC2(C1)Nc1cccnc1NC2=NC1CCCC1 (stereo unspecified)
  Tgondii IFNg = -18

CN(CC1COc2ccccc2O1)S(=O)(=O)c1ccc2[nH]c(=O)ccc2c1 (stereo unspecified)
  Tgondii IFNg = -25

Cc1cccn2c(CNC(=O)CC3NC(=O)c4ccccc43)cnc12 (stereo unspecified)
  Tgondii IFNg = 11

COc1cccc(C#Cc2ccc([C@@H]3[C@@H](C#N)N[C@@H]3CO)cc2)c1
  Tgondii IFNg = -36

CO[C@H]1CCN(c2ncccn2)C[C@@H]1Cc1cccc(C)c1
  Tgondii IFNg = -9

COc1ccc2c(c1)NC1(CCN(C(=O)Nc3ccc(C)cc3Cl)CC1)c1cccn1-2
  Tgondii IFNg = 151

O=C(c1nc(-c2cccc(F)c2)n2c1CCCCC2)N1CCN(c2ncccn2)CC1
  Tgondii IFNg = 6

COCCN1C(=O)CCc2cc(NC(=O)c3ccc(Br)cc3)ccc21
  Tgondii IFNg = 34

CC(C)(C)NC(=O)CSc1nnc(NC(=O)Cn2c(=O)sc3ccccc32)s1
  Tgondii IFNg = 19

CCN1CCC2(CC1)OC(=O)C(C)=C2C(=O)N1CCN(c2ccc(OC)cc2)CC1
  Tgondii IFNg = -25

C=CCOc1ccccc1NC(=O)c1ccnc2ccc(Cl)cc12
  Tgondii IFNg = -14

O=C(OCC1CCCN2CCCCC12)c1ccc2c(c1)OCO2 (stereo unspecified)
  Tgondii IFNg = -5

COc1ccccc1CC(=O)Nc1ccc(-c2nc(Cn3nc(C)cc3C)c(C)o2)cc1
  Tgondii IFNg = -80*

An excerpt from above in order of molar mass, falling.
Cc1cc(C)c2c(=O)n(Cc3nc(-c4cccc(Cl)c4)oc3C)c(=O)n(Cc3ccco3)c2n1
  Tgondii IFNg = 11

COCCN1C(=O)CCc2cc(NC(=O)c3ccc(Br)cc3)ccc21
  Tgondii IFNg = 34

O=C(C1CCOCC1)N1CCO[C@H]2[C@H]1CC[C@H]2Oc1ncccc1F
  Tgondii IFNg = -24

CCc1nn(C)c(Cl)c1CN(C)Cc1cnn(-c2ccccc2)c1
  Tgondii IFNg = 8

Exported tab-delimited: 2 of the compounds above
smiles	Tgondii IFNg
O=C(OCC1CCCN2CCCCC12)c1ccc2c(c1)OCO2 (stereo unspecified)	-5
COc1ccccc1CC(=O)Nc1ccc(-c2nc(Cn3nc(C)cc3C)c(C)o2)cc1	-80*

(more compounds)
Cc1cnc(C(=O)N2C[C@@H]3COC[C@@]3(CN(C)C)C2)cn1
  Tgondii IFNg = -67

Cc1noc(C)c1S(=O)(=O)N(C)C[C@H]1Oc2c(NC(=O)c3ccc(-c4nccs4)cc3)cccc2C(=O)N([C@H](C)CO)C[C@@H]1C
  Tgondii IFNg = -23

CN(Cc1ccccc1)C1CCN(C(=O)c2cccnc2)C(C(=O)O)C1 (stereo unspecified)
  Tgondii IFNg = 3

CO[C@@H]1CN(C)C(=O)c2ccc(NC(=O)Nc3ccccc3)cc2OC[C@@H](C)N(C(=O)CC2CC2)C[C@@H]1C
  Tgondii IFNg = 144

Cc1ccc(CN2CCC3(CC2)OCC(=O)N(Cc2csc(C)n2)C3C)o1 (stereo unspecified)
  Tgondii IFNg = -6

O=C1CCCN1CCC1CCCCN1C(=O)Nc1cccc(Cl)c1Cl (stereo unspecified)
  Tgondii IFNg = 9

O=C(NCCc1csc(-c2ccc(F)cc2)n1)C12CC3CC(CC(C3)C1)C2
  Tgondii IFNg = -11

CC(C)(O)C#Cc1cccc(C(=O)NC2(CN3CCOCC3)CCCC2)c1
  Tgondii IFNg = -44

Cc1cc(=O)[nH]c(N2CCC(NC(=O)c3cc4nc(C)cc(C(F)F)n4n3)CC2)n1
  Tgondii IFNg = 37

C[C@@H]1CN([C@H](C)CO)C(=O)c2cccc(NS(=O)(=O)c3ccc(F)cc3)c2O[C@H]1CN(C)Cc1ccc(Cl)c(Cl)c1
  Tgondii IFNg = -22

Brought forward from above: 5 compounds, then new ones.
O=C1CCCN1CCC1CCCCN1C(=O)Nc1cccc(Cl)c1Cl (stereo unspecified)
  Tgondii IFNg = 9

O=C(NCCc1csc(-c2ccc(F)cc2)n1)C12CC3CC(CC(C3)C1)C2
  Tgondii IFNg = -11

CC(C)(O)C#Cc1cccc(C(=O)NC2(CN3CCOCC3)CCCC2)c1
  Tgondii IFNg = -44

Cc1cc(=O)[nH]c(N2CCC(NC(=O)c3cc4nc(C)cc(C(F)F)n4n3)CC2)n1
  Tgondii IFNg = 37

C[C@@H]1CN([C@H](C)CO)C(=O)c2cccc(NS(=O)(=O)c3ccc(F)cc3)c2O[C@H]1CN(C)Cc1ccc(Cl)c(Cl)c1
  Tgondii IFNg = -22

Cc1ccc(CN(C)C(=O)c2cc(CC(C)C)[nH]c(=O)n2)o1
  Tgondii IFNg = 12

COc1ccc2c3c([nH]c2c1)[C@H](CO)N(Cc1ccccc1)CC31CN(C(=O)c2ccccn2)C1
  Tgondii IFNg = -52

COc1cc(OC)c(Nc2nc(-c3nnc(-c4ccccc4)o3)nc3ccccc23)cc1Cl
  Tgondii IFNg = 268

Cc1ccsc1[C@@H]1CCN(C(=O)c2coc3c2C(=O)CCC3)C[C@H]1O
  Tgondii IFNg = 2

COCCO[C@@H]1CCN(Cc2nccs2)[C@@H]1Cc1cccnc1
  Tgondii IFNg = 40

Cc1cccc(-c2nc(CCNC(=O)c3ccc(Br)cc3)cs2)c1
  Tgondii IFNg = 138

CC1=CC(C)(C)N(C(=O)c2ccccc2)c2ccc(OC(=O)c3ccccc3)cc21
  Tgondii IFNg = -51

O=S(=O)(NCCc1csc(-c2cccc(F)c2)n1)c1ccc(F)cc1F
  Tgondii IFNg = -10

O=c1c(C(c2ccccc2)c2c(O)sc3ccccc3c2=O)c(O)sc2ccccc12
  Tgondii IFNg = -12

O=c1c(-c2ccc(O)cc2)coc2c([C@@H]3O[C@H](CO)[C@@H](O)[C@H](O)[C@H]3O)c(O)ccc12
  Tgondii IFNg = 15

Fc1cccc(-c2ccc3c(C4CCCN4Cc4ccncc4)nnn3c2)c1 (stereo unspecified)
  Tgondii IFNg = 23

COc1cccc(NC(=O)N[C@@H]2CC[C@H](CC(=O)N3CCN(C)CC3)O[C@H]2CO)c1
  Tgondii IFNg = 5

O=S(=O)(Oc1cccc2cccnc12)c1ccc(-c2ccno2)s1
  Tgondii IFNg = 94

Cc1nc2nc[nH]n2c(=O)c1CC(=O)Nc1ccc2c(c1)CN(Cc1ccccc1)C2
  Tgondii IFNg = -6

Cc1nc(N)nc(C)c1CCC(=O)Nc1ccc2c(c1)CN(Cc1ccccc1)C2
  Tgondii IFNg = -1

Fc1cccc(CN2CCN(CC3CCOC3)CC2)c1 (stereo unspecified)
  Tgondii IFNg = -2

COCCN1CCN(Cc2c(C)noc2C)Cc2cccnc21
  Tgondii IFNg = -1

Cc1cccc(Cl)c1NC(=O)N1CCN(CC(C)C)C(=O)C1C (stereo unspecified)
  Tgondii IFNg = -2

CNC[C@H]1OCc2cnnn2CCCC(=O)N([C@H](C)CO)C[C@@H]1C
  Tgondii IFNg = -23

CC(NC(=O)Cc1cc(F)cc(F)c1)C(=O)NC(C(=O)OC(C)(C)C)c1ccccc1 (stereo unspecified)
  Tgondii IFNg = 18

O=C(C1CCC1)N1C[C@H]2[C@@H](c3ccccc31)[C@@H](CO)N2Cc1ccccc1
  Tgondii IFNg = 7

Cc1ccc(N2Cc3ncn(CC(C)C)c3C(C(=O)O)C2)nn1 (stereo unspecified)
  Tgondii IFNg = 10

CC(C)N1CCn2nc(C(=O)NCC3COCCO3)cc2C1 (stereo unspecified)
  Tgondii IFNg = 1

Cc1ccc(C)c(NC(=O)Cn2c(=O)cc(C(=O)N3CCCC3)c3ccccc32)c1
  Tgondii IFNg = 1

COC(=O)[C@@H]1C[C@@H](N(C)C)CN1CC1=Cc2cccc(OC)c2OC1
  Tgondii IFNg = 6

O=C(NCc1cccnc1)C1CCN(Cc2cc3ccccc3n2Cc2ccc(F)cc2)CC1
  Tgondii IFNg = -6

CC(=O)N1CCCCCC1Cc1c(C(=O)NC(C)C)sc2ccccc12 (stereo unspecified)
  Tgondii IFNg = -19

CN(C(=O)c1ccc(-n2cccn2)c(C#Cc2ccccc2)c1)C1CCS(=O)(=O)C1 (stereo unspecified)
  Tgondii IFNg = -3

CC(C)(C)NC(=O)CSc1nncn1NCc1c(Cl)cccc1Cl
  Tgondii IFNg = -43

CCC(C)C(=O)N1CCc2cc(-c3cn4cc(C)ccc4n3)ccc21 (stereo unspecified)
  Tgondii IFNg = 39

Cn1ccnc1C(=O)N1CCCC2(CCC(=O)N2)C1 (stereo unspecified)
  Tgondii IFNg = 97

Cc1ccn2c(CN3CCC(Oc4ccccc4F)CC3)c(C)nc2c1
  Tgondii IFNg = -56

Cc1ccc(S(=O)(=O)N2CCn3cc(CN(C)C)nc3C2)cc1
  Tgondii IFNg = -1

c1cnc(N2CCc3ncnc(C4CC4)c3CC2)nc1
  Tgondii IFNg = -22

COc1ccc(NC(=O)CN2CCC3(CC2)N=C(c2ccc(Cl)cc2)C(=O)N3)cc1
  Tgondii IFNg = 53

CN1C(=O)CCc2cc(NC(=O)Cc3c(F)cccc3Cl)ccc21
  Tgondii IFNg = 20

CCO[C@H]1CN(S(=O)(=O)c2cccs2)[C@H]2COC[C@@H]12
  Tgondii IFNg = 8

COc1cc(NC(=O)c2nc(Nc3ccccc3)c3ccccc3n2)cc(OC)c1OC
  Tgondii IFNg = 95

COc1cccc(CCc2nnc(NC(=O)c3ccc4oc(=O)n(C)c4c3)s2)c1
  Tgondii IFNg = 6

O=C(C[C@H]1CC[C@@H]2[C@H](COC[C@H](O)CN2S(=O)(=O)c2ccccc2)O1)NCC1CCCCC1
  Tgondii IFNg = -44

At a glance, 4 of the compounds above.
Cc1ccc(S(=O)(=O)N2CCn3cc(CN(C)C)nc3C2)cc1
  Tgondii IFNg = -1

c1cnc(N2CCc3ncnc(C4CC4)c3CC2)nc1
  Tgondii IFNg = -22

COc1ccc(NC(=O)CN2CCC3(CC2)N=C(c2ccc(Cl)cc2)C(=O)N3)cc1
  Tgondii IFNg = 53

CN1C(=O)CCc2cc(NC(=O)Cc3c(F)cccc3Cl)ccc21
  Tgondii IFNg = 20

Further results follow:
COc1cccc(S(=O)(=O)N(C)C[C@H]2Oc3cc(Br)ccc3S(=O)(=O)N([C@@H](C)CO)C[C@H]2C)c1
  Tgondii IFNg = ?

CN1CCOCC12CCN(C(=O)c1cnccn1)CC2
  Tgondii IFNg = 36

C[C@H]1CN([C@@H](C)CO)S(=O)(=O)c2ccc(C#CC(C)(C)O)cc2O[C@H]1CN(C)Cc1ccc(F)cc1
  Tgondii IFNg = -32

Fc1ccc2c(c1)nnn2C1CCN(C(=S)NCC2CCCO2)CC1 (stereo unspecified)
  Tgondii IFNg = -25

COc1ccccc1CN(C(=O)c1cccc2cccnc12)C1CC1
  Tgondii IFNg = 10

Cc1cc(NC(=O)NC(=O)c2c(F)cccc2Cl)no1
  Tgondii IFNg = 58

COc1nc(N)nc2c1ncn2[C@@H]1O[C@H](CO)[C@@H](O)[C@@H]1O
  Tgondii IFNg = 14&12
